Polio RdRp inh – poliovirus RNA polymerase inhibition. P03300. poliovirus polymerase elongation, fluorescence polarization; hits give low values. % elongation, % (compound at 16.7 µg/mL). 150,000 compounds, 0.66% hits. AID 588519; in the data active means % elongation below about 90%; further: some results filed as inactive read as strong as hits
Target sequence (P03300 1749-2209 limits assumed): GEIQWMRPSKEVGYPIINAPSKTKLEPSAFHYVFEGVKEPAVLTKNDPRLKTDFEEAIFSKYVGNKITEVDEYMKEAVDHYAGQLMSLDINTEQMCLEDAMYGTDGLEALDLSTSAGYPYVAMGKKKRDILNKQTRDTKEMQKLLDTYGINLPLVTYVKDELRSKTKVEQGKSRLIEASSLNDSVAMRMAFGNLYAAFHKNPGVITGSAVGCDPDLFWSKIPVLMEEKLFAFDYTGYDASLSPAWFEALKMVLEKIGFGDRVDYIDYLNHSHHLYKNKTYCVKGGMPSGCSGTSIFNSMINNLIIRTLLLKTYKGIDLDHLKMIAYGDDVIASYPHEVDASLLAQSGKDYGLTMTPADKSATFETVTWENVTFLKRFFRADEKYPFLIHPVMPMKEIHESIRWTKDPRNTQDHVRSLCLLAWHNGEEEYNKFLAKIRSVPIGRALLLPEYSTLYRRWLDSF
Polio RdRp inh intensity – also measured in Polio RdRp inh; calls as there; % elongation; measured here: total intensity read-out; formula for this scale not given here;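 total fluorescence in place of polarization; lower means less elongation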
The depositor's hits bear a star. Not all compounds are listed; the hit share may differ from the screen's.

SMILES	Polio RdRp inh	Polio RdRp inh intensity
CC(C)CNC(=O)C(=O)Nc1c2c(nn1-c1ccccc1)CS(=O)(=O)C2	96	98
COCCCn1c(SCC(=O)Nc2ccccc2OC)nc2c(sc3ccccc32)c1=O	105	105
COc1cc(NC(=O)c2ccc3oc(=O)c(S(=O)(=O)c4ccccc4)cc3c2)cc(OC)c1	109	111
CCOc1ccc(C(=O)NCC(c2ccc3c(c2)OCO3)N2CCN(c3ccccc3F)CC2)cc1 (configuration not stated)	107	92
CCOC(=O)C1CCN(C(c2cccc(F)c2)c2c(O)cc(C)n(Cc3ccco3)c2=O)CC1 (configuration not stated)	112	102
COc1ccccc1NC(=O)Cn1c(=O)n(Cc2ccccc2)c(=O)c2c3c(sc21)CN(C(C)=O)CC3	101	105
CC(C)(C)C(=O)Nc1ccc2nc(SCC(=O)N3CCc4ccccc43)sc2c1	106	99
O=C(NCc1ccccc1Cl)C(=O)NCC(c1cccs1)S(=O)(=O)c1cccs1 (configuration not stated)	111	111
Cc1ccccc1NS(=O)(=O)c1ccc2c(c1)NC(=O)CCS2	108	101
CCOC(=O)c1ccccc1NC(=O)Cn1ccn2nc(-c3ccc(OCC)cc3)cc2c1=O	100	98
CCc1ccc(NC(=O)c2ccc(F)c(S(=O)(=O)N3CCC(C)CC3)c2)cc1	105	99
CCc1ccccc1NC(=O)CSc1ncc(S(=O)(=O)c2ccc(C(C)C)cc2)c(N)n1	100	103
COc1cccc(CNC(=O)c2nnn(CC(=O)Nc3cc(Cl)ccc3C)c2N)c1	106	114
O=C(NC1CCCCC1)c1ccc(CSc2nc3cccnc3n2Cc2ccccc2)cc1	111	117
CCCSCCCNC(=O)CN1C(=O)COc2ccc(S(=O)(=O)N3CCCCCC3)cc21	102	106
Cc1ccc(S(=O)(=O)c2cn(Cc3ccccc3)c3cc(N4CCOCC4)c(F)cc3c2=O)cc1	108	106
COc1cn(CC(=O)Nc2ccc(F)cc2)c(CN2CCCCC2)cc1=O	108	104
COCCCNC(=O)c1cc2c(-c3cccc(OC)c3)nn(C)c2s1	103	106
COc1ccccc1Nc1cc(C(=O)NC2CCC(C)CC2)c2ccccc2n1 (configuration not stated)	105	102
CCc1ccc(C2c3c(oc4ccc(F)cc4c3=O)C(=O)N2c2nc(C)c(C(=O)OC)s2)cc1 (configuration not stated)	103	106
CCOc1ccc(CCNC(=O)C(CC(C)C)N2Cc3ccccc3C2=O)cc1OCC (configuration not stated)	104	105
Cc1ccc(-c2nc(CNC(=O)Nc3ccccc3)c(C)o2)cc1	103	108
COc1c(C)cc(Br)cc1C(=O)Nc1ccc(-c2nc3ncccc3o2)cc1	106	111
CCC(=O)OCCCNc1nc(-c2ccc(Cl)cc2)nc2ccccc12	102	102
Cc1nn(C(=O)c2ccccc2)c(C)c1S(=O)(=O)N1CCOCC1	101	106
CCC(=O)Nc1ccc(CC)cc1-c1nc2ccccc2n(CC(=O)Nc2ccccc2C)c1=O	105	110
Cc1ccc(Cl)cc1NC(=O)Cn1cc2c(n1)CCCCC2	105	106
CCCC1=Nc2cc(C(=O)N3CCC(C(=O)OCC)CC3)ccc2Sc2ccccc21	112	111
CNC(=O)C1CCC(Cn2c(=O)c3sccc3n(CC(=O)Nc3cc(C)cc(C)c3)c2=O)CC1 (configuration not stated)	108	109
COc1ccccc1N(CC(=O)Nc1cc(C)cc(C)c1)S(C)(=O)=O	104	101
Cn1c(=O)c2c(SCC(=O)NCc3ccco3)nc(-c3ccccc3Cl)nc2n(C)c1=O	101	101
COc1cc2cc(CNc3ccccc3)c(=O)n(CC(=O)Nc3cccc(Cl)c3C)c2cc1OC	105	122
COc1ccccc1NC(=O)CSc1oc(-c2ccccc2)nc1S(=O)(=O)c1ccc(C)cc1	98	99
COc1ccc(N(C(=O)c2ccccc2C)S(=O)(=O)c2ccc(C)cc2)cc1	106	107
Cc1ccc(NC(=O)c2c(C)oc3ccc(O)c(CN4CCCCC4)c23)c(C)c1	103	107
CCc1nn(CC(=O)Nc2ccc(N(CC)CC)cc2C)c(=O)c2cc3sccc3n12	104	106
COc1ccc(CCNC(=O)c2cnc3sc(N4CCOCC4)nn3c2=O)cc1	104	108
Cc1c(-c2cccc(NC(=O)c3ccc(F)c(F)c3)c2)nc2ncccn12	113	115
CCNc1c(NC(=O)c2ccccc2OCC)c(=O)oc2ccccc12	103	107
CCc1cccc(NC(=O)c2sc3nc[nH]c(=O)c3c2C)c1	108	108
Cc1ccc(C(=O)Nc2ccccc2)cc1S(=O)(=O)Nc1ccc(Br)cc1	102	99
CCOc1ccccc1N1CC(c2nc3ccccc3n2CCOc2ccc(C(C)(C)C)cc2)CC1=O (configuration not stated)	109	110
CCOc1ccc(NC(=O)CC2C(=O)N(c3ccc(OC)cc3)C(=O)N2C2CCCCC2)cc1 (configuration not stated)	108	109
CC(C)(C)C(=O)NCCc1nc2ccccc2n1CCCCOc1ccccc1	104	111
COc1cc2c(cc1OC)C(c1cc(OC)c(O)c(OC)c1)CC(=O)N2 (configuration not stated)	110	112
O=C(Nc1cccc(C(=O)OCc2cc(=O)n3c4c(sc3n2)CCCC4)c1)c1ccccc1	108	114
Cc1cc(C)c2c(=O)cc(C(=O)Nc3nc4ccc(F)cc4s3)oc2c1	114	117
COc1ccc(NC(=O)COCc2cc(-c3cccs3)on2)cc1	102	101
CC(C)C(=O)NCC(c1ccc2c(c1)OCO2)N1CCN(c2ccccc2F)CC1 (configuration not stated)	101	105
COc1ccc(C2CC(=O)c3cnc4c(-c5ccccc5)c(C)nn4c3C2)cc1OC (configuration not stated)	101	103
CCc1cccc(C)c1NC(=O)CCS(=O)(=O)c1cc(Br)cc2c1N(C(=O)C1CC1)CC2	103	103
CCOC(=O)c1c(NC(=O)C2c3ccccc3Oc3ccccc32)sc(C)c1C	109	110
CCCCC(=O)Nc1cc(C)c(O)c(-c2nc3ncccc3o2)c1	101	97
CCOCCc1nn2c(=O)cc(COC(=O)Cc3ccccc3)nc2s1	105	108
Cc1ccc(C)c(N2CCN(C(=O)C3CCCN(S(=O)(=O)c4cccc5nonc45)C3)CC2)c1 (configuration not stated)	108	121
Cc1ccccc1Cn1c(-c2cccs2)nc2ccccc21	106	108
O=C(Cn1c(=O)c2sccc2n(CC(=O)Nc2ccc(Cl)cc2Cl)c1=O)NCCc1ccccc1	106	104
Cc1nn(-c2ccc(Cl)cc2)c2nc(-c3cccnc3)cc(C(F)(F)F)c12	107	113
CCc1ccccc1NC(=O)Cn1c(C(=O)OC)cc2oc(C)cc21	108	113
CN1C(=O)Cc2cc(S(=O)(=O)CCC(=O)N3CCN(c4ccc(Cl)cc4)CC3)ccc21	111	112

(continued)
SMILES	Polio RdRp inh	Polio RdRp inh intensity
Cc1ccc(NC(=O)Nc2nnc(SCC(=O)N(C(C)C)C(C)C)s2)cc1	105	104
CCCCc1ccc(NC(=O)c2cc3c(=O)n4ccccc4nc3n2C)cc1	112	109
CCn1ccc2cc(S(=O)(=O)N3CCC(C(=O)NCc4cccc(C)c4)CC3)ccc21	103	108
CCc1ccc(Oc2c(C(F)(F)F)oc3c(CN4CCCC(C)C4)c(O)ccc3c2=O)cc1 (configuration not stated)	102	109
COc1ccc(-c2cccc(NS(=O)(=O)c3cc(C)c(Cl)cc3C)c2)nn1	98	93
Cc1cccc(N2CCN(S(=O)(=O)c3nnc(NC(=O)c4ccc(Cl)cc4)s3)CC2)c1	110	115
Cc1ccc(NC(=O)c2cc(-c3ccc4c(c3)OCO4)on2)cc1	102	105
Cc1cc(F)ccc1NC(=O)CN1C(=O)CCc2cc(S(=O)(=O)N3CCOCC3)ccc21	111	105
CC(=O)N1CCc2cc(Br)cc(S(=O)(=O)N3CCN(c4cccc(C)c4)C(C)C3)c21 (configuration not stated)	105	111
COCCCn1c(=N)c(C(=O)NC2CCCCC2)cc2c(=O)n3cc(C)ccc3nc21	117	115
Cc1cccc(-c2nnc(SCCC(=O)O)o2)c1	98	98
Cn1nc(C(=O)NCCc2ccc(Cl)cc2)c2c1-c1ccccc1SC2	113	119
COc1ccc(CN2C(=O)c3oc4ccccc4c(=O)c3C2c2ccc(O)cc2)cc1 (configuration not stated)	105	106
CN(C(=O)c1nn(C)c2c1COc1ccccc1-2)c1cccc(C(F)(F)F)c1	113	114
O=C(C1CCC(Cn2c(=O)c3sccc3n(Cc3ccccc3)c2=O)CC1)N1CCCCC1 (configuration not stated)	104	108
Cc1cc(O)c(C(c2ccccc2)N2CCN(C)CC2)c(=O)n1Cc1ccco1 (configuration not stated)	109	100
CCOC(=O)c1ccc(CN(Cc2ccc(F)cc2)S(=O)(=O)c2ccc(F)c(C(=O)Nc3ccccc3C(F)(F)F)c2)cc1	103	107
Cc1cc(C)c2c(c1)c(C)cc1nnc(SCC(=O)c3ccccc3)n12	110	104
Cc1ccccc1C(=O)Nc1nnc(S(=O)(=O)N(C)Cc2ccc(Cl)cc2)s1	101	105
COc1ccc(NC(=O)c2cc(C(C)=O)n3ccccc23)cc1Cl	111	118
Cc1cccc(-n2ccnc2SCC(=O)Nc2ccc(F)cc2F)c1C	100	104
COc1ccc(-c2nc3c(c(SCC(=O)Nc4ccccc4OC)n2)Cc2cccc(C)c2O3)cc1	103	110
Cc1ccc(C(=O)COC(=O)c2cc(-c3ccccc3)nc3ccccc23)cc1C	99	100
CCN1CCN(c2c(S(=O)(=O)c3ccc(Cl)cc3)cnc3ccccc23)CC1	103	106
COc1ccc(-c2nc3cc(C)ccn3c2NC(=O)c2ccc(C)c(C)c2)cc1	103	103
CCN(CC)CCCNC(=O)c1ccc2c(c1)sc1nc(-c3ccc(C)cc3)cn12	97	86
COc1ccc(CCN2C(=O)N(c3ccc(F)cc3)C(=O)C2CC(=O)Nc2ccc(F)c(F)c2)cc1 (configuration not stated)	107	108
COc1ccc(OCc2nc(-c3ccc(OC)c(OC)c3)no2)cc1	103	103
CCOc1cccc2sc(NC(=O)CS(=O)(=O)c3ccc(C)cc3)nc12	104	109
CCc1ccc(NC(=O)CCc2nnc3n(C)c(=O)c4sccc4n23)cc1	102	104
COc1ccc(C(=O)NC2(C(F)(F)F)C(=O)Nc3c2c(=O)[nH]c(=O)n3CCc2ccc(OC)c(OC)c2)cc1 (configuration not stated)	104	107
CCc1nnc(NC(=O)c2cc(=O)c3cc(C)ccc3o2)s1	110	115
O=C(Cn1cc(S(=O)(=O)Cc2ccccc2Cl)c2ccccc21)NCc1ccccc1Cl	101	105
O=C(Nc1cccc(Cl)c1)c1cc2c(=O)[nH]c3ccccc3c2s1	108	110
CCN(C(=O)c1nn(C)c2c1CSc1ccccc1-2)c1cccc(C)c1	114	103
COc1ccccc1CCNC(=O)c1ccc(NC(=O)N2CC(C)Sc3ccccc32)cc1 (configuration not stated)	112	114
COc1ccc(Br)cc1CNC(=O)c1ccc2c(c1)N(Cc1ccc(C)cc1)CCS2	111	112
CCCNC(=O)c1cnn2c(C(F)F)cc(-c3ccccc3)nc12	103	106
CCOc1ccc(CCNC(=O)c2nc(-c3cccc(F)c3)n3c2CCCCC3)cc1OCC	106	100
COc1ccc(N2CCN(C(=O)CCc3c(C)nc4cc(-c5ccc(OC)cc5OC)nn4c3C)CC2)cc1	105	106
CCOc1cc(C2CC(=O)Nc3c2c(=O)nc(SCc2cccc(Cl)c2)n3C)ccc1O (configuration not stated)	106	109
CCOC(=O)c1cccc(NC(=O)N2CC(CC)Oc3ccccc32)c1 (configuration not stated)	109	108
Cc1ccc(CNC(=O)CCCCCn2c(=O)[nH]c3ccccc3c2=O)cc1	115	117
CCc1cccc(-n2nnc(-c3nc(-c4ccccc4Cl)no3)c2N)c1	118	122
Cc1ccccc1OCCn1cc(C(=O)c2ccco2)c2ccccc21	109	112
CCOC(=O)c1ccc(CN(Cc2ccccc2C)S(=O)(=O)c2ccc(C(C)(C)C)cc2)cc1	110	113
COc1ccc(-c2ccc3c(N)c(C(=O)c4ccc(OC)c(OC)c4)sc3n2)cc1	126	139
COc1ccc(Nc2nc3c(S(=O)(=O)c4ccc(Br)cc4)nnn3c3ccsc23)c(OC)c1	105	109
CCc1ccc(S(=O)(=O)Nc2ccc3oc(C)c(C(=O)OCCOC)c3c2)cc1	106	110
CC(=O)c1ccc(NC(=O)C2=CC(c3cccs3)=NS(=O)(=O)N2C)cc1	-12*	20*
Cc1ccc(CNC(=O)c2ccc3c(c2)c(C)c(C)n3Cc2ccccc2)o1	112	112
CC(NCc1ccc2c(c1)n(C)c(=O)n2C)c1ccccc1 (configuration not stated)	105	110
CC(=O)c1cccc(NS(=O)(=O)c2ccc3[nH]c4c(c3c2)CCCCCC4)c1	110	114

By substructure: those above with an aryl thioether with sulfur outside any ring.
SMILES	Polio RdRp inh	Polio RdRp inh intensity
COCCCn1c(SCC(=O)Nc2ccccc2OC)nc2c(sc3ccccc32)c1=O	105	105
CC(C)(C)C(=O)Nc1ccc2nc(SCC(=O)N3CCc4ccccc43)sc2c1	106	99
CCc1ccccc1NC(=O)CSc1ncc(S(=O)(=O)c2ccc(C(C)C)cc2)c(N)n1	100	103
O=C(NC1CCCCC1)c1ccc(CSc2nc3cccnc3n2Cc2ccccc2)cc1	111	117
Cn1c(=O)c2c(SCC(=O)NCc3ccco3)nc(-c3ccccc3Cl)nc2n(C)c1=O	101	101
COc1ccccc1NC(=O)CSc1oc(-c2ccccc2)nc1S(=O)(=O)c1ccc(C)cc1	98	99
Cc1ccc(NC(=O)Nc2nnc(SCC(=O)N(C(C)C)C(C)C)s2)cc1	105	104
Cc1cccc(-c2nnc(SCCC(=O)O)o2)c1	98	98
Cc1cc(C)c2c(c1)c(C)cc1nnc(SCC(=O)c3ccccc3)n12	110	104
Cc1cccc(-n2ccnc2SCC(=O)Nc2ccc(F)cc2F)c1C	100	104
COc1ccc(-c2nc3c(c(SCC(=O)Nc4ccccc4OC)n2)Cc2cccc(C)c2O3)cc1	103	110
CCOc1cc(C2CC(=O)Nc3c2c(=O)nc(SCc2cccc(Cl)c2)n3C)ccc1O (configuration not stated)	106	109

Bioassay records: PubChem BioAssay, ICCB-Longwood Screening Facility, Harvard Medical School
